Prx2 Sm inh: Schistosoma mansoni Prx2 inhibition | Potency, µM | 65,000 compounds, 0.07% hits | S. mansoni Prx2 activity coupled to TGR/GSH (TGR is thioredoxin glutathione reductase), NADPH fluorescence loss, qHTS; some inactives read as strong as hits | AID 448; active means full or partial inhibition curve with a strong effect at the top dose; inconclusive means weaker partial or single-point curve; inactive means no accepted curve; note: series up to 57 µM; many of its hits are not listed in these tables
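Coupled assay in which S. mansoni TGR passes NADPH reducing equivalents via glutathione to Prx2, which reduces H2O2. Compounds were preincubated 15 min at room temperature with 25 nM TGR/50 nM Prx2 mix. Kinetic NADPH fluorescence loss (ex 365/em 450 nm) was monitored.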
LT uptake inh: inhibitors of anthrax lethal toxin internalization. Cells, anthrax lethal toxin internalization, FRET ratio (460/530). Potency, µM (series often up to 40 µM), without a hit: top-dose activity change, negative = inhibition, actives largely listed as inhibitors. 70,000 compounds, 0.67% hits; active = well fitted falling ratio curve with the 530 nm signal flat; inconclusive = other ratio curves, or a change in one channel alone; inactive = flat curves in the ratio and both channels; the % refers to the ratio; note: % is set by controls: 0 for no effect and ±100 for the full control effect; nearly all actives have a fitted effect of over 50% in size; tested in ME-180 cells; beta-lactamase reporter
Active calls of the source: *; ? = inconclusive; . = not tested or not shown; & = joins results of further samples; [ ] = dose if it differs, or a comment. Potency is the fitted concentration of half-maximal effect. The list is partial; rates above refer to the full screens.

molecule	Prx2 Sm inh	LT uptake inh
O=C(c1cc(-c2ccncc2)nc2ccc(Cl)cc12)N1CCN(C(=O)C2CCCO2)CC1 (stereo not given)	>57	-10%
N#CC(C#N)=NNc1ccc(OC(F)(F)F)cc1	.	0.5µM*
CCOC(=O)C1CCN(C(=O)COc2ccc(Br)cc2)CC1	>57	.
Cc1ccc(N2CCN(C(=O)c3ccccc3)CC2)c(C)c1	>57	-15%
Cc1ccc(-c2noc(CCCC(=O)N3CCOCC3)n2)cc1	>57	-9%
O=c1c(-c2ccc3c(c2)OCCO3)coc2cc(O)cc(O)c12	>57	16%
COc1ccc(NC(=O)C2CCN(c3cc(-c4ccccc4)nc4ncnn34)CC2)cc1OC	>57	-15%
CCOC(=O)CN(C(=O)CSc1nnc2c(n1)[nH]c1ccccc12)c1ccccc1	>57	-5%
CCOC(=O)CSc1nc(C)cc(=O)[nH]1	>57	-1%
O=C1NC2(CCOc3ccccc32)C(=O)N1CC(=O)N(Cc1ccccc1)C1CCS(=O)(=O)C1 (stereo not given)	>57	6%
COc1cc(C)nc(N2CCCC(C(=O)NC3CCC(C)CC3)C2)n1 (stereo not given)	>57	-9%
N#CC1=C(C2CC2)CC(c2ccccc2)C(C#N)=C1N (stereo not given)	>57	-27%
CCc1ccc(-c2nc(CN3CCC(C(=O)N4CCN(c5ccccc5)CC4)CC3)c(C)o2)cc1	>57	-26%
CS(=O)CCC(NS(=O)(=O)c1ccccc1)C(=O)O (stereo not given)	>57	.
COC(=O)N1CCC2(CCCN(c3cccc(-c4ccccc4)c3)C2)CC1	>57	3%
COc1cccc(C2=NOC(C(=O)N3CCN(Cc4ccccc4)CC3)C2)c1OC (stereo not given)	>57	-2%
N#Cc1cccc(-c2nc(Nc3ccncc3)c3ccccc3n2)c1	>57	10%
O=C(Nc1ccc2c(c1)OCO2)N1CCN(C(=O)C2CCCO2)CC1 (stereo not given)	>57	-7%
C(=C/c1ccccc1)/c1ccccc1	.	-11%
COc1ccccc1-c1nnc2sc(-c3cnccn3)nn12	>57	.
CCCOCCOC(=O)c1[nH]c2c(c1C)C(=O)CC(c1cc(OC)ccc1OC)C2 (stereo not given)	>57	?
CCCC[C@@H]1C[C@H]1C(NS(=O)(=O)c1cccc2cccnc12)c1ccc(-c2ccccc2)cc1 (stereo not given in full)	>57	-21%
CC(C)C(=O)c1cn(CC(=O)NCC2CCCO2)c2ccccc12 (stereo not given)	>57	-2%
COc1ccc(C(=O)N[C@H]2COC(C)(C)O[C@H]2c2ccccc2)cc1	>57	14%
c1cc(CSc2nnc(-c3ccc4c(c3)OCO4)o2)ccn1	>57	8%
CCN(C(=O)COc1ncnc2ccc(Br)cc12)C1CCS(=O)(=O)C1 (stereo not given)	>57	0%
N#Cc1nc(COc2ccc(F)cc2)oc1NCCN1CCOCC1	>57	9%
Cc1cc(C)nc(N2CCCC(C(=O)NC(C)CCc3ccco3)C2)n1 (stereo not given)	>57	-15%
Cc1nc2nc[nH]n2c(=O)c1NC(=O)CCc1ccccc1	>57	3%
C=CCn1c(Cc2nc3ccccc3[nH]2)n[nH]c1=S	>57	11%
Cc1ccc(S(=O)(=O)N2CCCC(C(=O)NCc3ccccn3)C2)cc1 (stereo not given)	>57	8%
CC(=O)Nc1ccc(S(=O)(=O)N2CCN(Cc3ccncc3)CC2)cc1	>57	9%
COc1ccccc1-c1ccc2ncnc(NC3CCNCC3)c2c1	>57	-11%
O=C1CC(C(=O)Nc2ccc(C(=O)N3CCOCC3)cc2)C2(CCCCC2)O1 (stereo not given)	>57	-7%
CC(C)(C)NC(=O)C(c1ccco1)N(C(=O)Cn1nnc(-c2ccc(F)cc2)n1)c1ccccc1F (stereo not given)	.	?
O=c1cc[nH]c2c(C(F)(F)F)cccc12	>57	.
O=c1c2c3nc4ccccc4nc3n(CC3CCCO3)c2ncn1CCc1ccccc1 (stereo not given)	>57	?
O=S(=O)(/N=C(\c1ccccc1)N1CCOCC1)c1cccs1	>57	-12%
NS(=O)(=O)c1ccc(CCNC(=O)c2cncc(Br)c2)cc1	>57	-1%
COc1cccc(-c2nc(CS(=O)(=O)CC(=O)Nc3c(C)cccc3C)c(C)o2)c1	>57	-12%

Filtered by structure: the entries above with an aryl thioether with sulfur outside any ring (three)
molecule	Prx2 Sm inh	LT uptake inh
CCOC(=O)CN(C(=O)CSc1nnc2c(n1)[nH]c1ccccc12)c1ccccc1	>57	-5%
CCOC(=O)CSc1nc(C)cc(=O)[nH]1	>57	-1%
c1cc(CSc2nnc(-c3ccc4c(c3)OCO4)o2)ccn1	>57	8%

The results go on:
molecule	Prx2 Sm inh	LT uptake inh
O=C(CSc1nc(Nc2ccccc2)nc(N2CCOCC2)n1)N1CCCC1	>57	22%
O=C(Nc1ccccc1N1CCCC1)c1ccc(Br)o1	>57	-15%
CCN(C)c1ccc(/C=N\n2nnnc2N)cc1	>57	?
COC(=O)c1sc(S(=O)(=O)NCc2cccs2)c(C(=O)OC)c1C	>57	-28%
CCc1nnc(NC(=O)CSc2nccn2-c2ccccc2)s1	>57	3%
CCOC(=O)c1[nH]c(=O)[nH]c1CSCCO	.	-13%
CN1C(=O)/C(=C2/C=CC=CN2C)OC1=S	.	1%
CCN1C(=O)[C@H]2[C@H]3[C@H](O)[C@H](O)C/C(=N/NC(=O)OCc4ccccc4)[C@H]3CC[C@@H]2C1=O	.	?
CN(Cc1ccccc1)C(=O)CCC(=O)N(C)Cc1ccccc1	.	-1%
Cc1ccccc1CN1CCNC(=O)C1CC(=O)O (stereo not given)	>57	-7%
Nc1nc2ccc(S(=O)(=O)c3ccc4nc(N)sc4c3)cc2s1	>57	-5%
COc1ccc(S(=O)(=O)N(CC(=O)Nc2cc(C)on2)Cc2ccccc2)cc1	>57	-18%
CCCCn1c(=NC(=O)c2ccco2)c(C(=O)OCC)cc2c(=O)n3ccccc3nc21	>57	?
CN(O)/C=c1/ccc2c(n1)C(=O)C=CC=2	>57	-5%
O=S(=O)(C[C@H](O)C(Cl)(Cl)Cl)NNc1ccccc1	>57	-7%[8 µM]
CCC(C(=O)Nc1nnc(-c2ccco2)s1)c1ccccc1 (stereo not given)	>57	-27%
Cc1cccc(-c2noc(CN(C(=O)C34CC5CC(CC(C5)C3)C4)C(C)C)n2)c1	>57	4%
Cc1cc(C)nc(SCc2n[nH]c(=S)n2C)n1	>57	?
O=C(CSc1nc2ccccc2o1)N1CCN(c2ccc(Cl)cc2)CC1	>57	3%
CS(=O)(=O)Nc1cccc(-c2cc(NCc3ccccc3)ncn2)c1	>57	-4%
COC(=O)c1ccc(CN(c2ccc(C)cc2)S(=O)(=O)c2ccc3c(c2)OCCO3)o1	>57	?
CCCN1C=CC(=C2C(=O)c3ccccc3C2=O)C=C1	.	12%
O=C(C1CCC(=O)N1C1CCCCC1)N1CCC2(CC1)OCCO2 (stereo not given)	>57	1%
c1nc2sc3c(c2c2nnnn12)CCCC3	>57	-5%
CCOC(=O)Cn1nc(-c2ccc(C)cc2)ccc1=O	>57	8%
O=C(c1ccc(S(=O)(=O)N2CCOCC2)cc1)N1CCN(c2ccccc2)CC1	.	-6%
C=CCn1c(=O)c(C(=O)Nc2ccccc2O)c(O)c2ccccc21	>57	11%
c1cncc(-c2noc(-c3ccco3)n2)c1	.	12%
Cn1cc(S(=O)(=O)CC(=O)Nc2ccc3c(c2)OCO3)c2ccccc21	>57	-6%
O=C(CN1CCCc2ccccc21)NCc1ccc2c(c1)OCO2	>57	?
Cc1ccc(CNc2nc3ccccc3s2)s1	>57	?
CCCn1c(SCC(=O)N2CCCC2)nc2c1c(=O)n(C)c(=O)n2C	>57	-17%
CC(C)CNS(=O)(=O)c1ccc(CCC(=O)NCc2ccco2)cc1	>57	2%
O=C(Nc1ccc(Br)c(Cl)c1)C1CC1	>57	-22%
CCn1c(SCC(=O)Nc2ccc3c(c2)OCCO3)nc2c(c1=O)SC(C)C2 (stereo not given)	>57	?
Cc1ccccc1Cn1nc(C)c(NC(=O)c2noc3c2CCCC3)c1C	>57	-5%
O=C(CCCn1c(=S)[nH]c2ccccc2c1=O)NC1CCCC1	>57	7%
Cc1ccccc1Cn1nc(C)c(NC(=O)c2cc3nc(-c4ccco4)cc(C(F)(F)F)n3n2)c1C	>57	8%
COc1cccc(N2C(=O)C(CC(=O)Nc3ccccc3)N(C3CCCCC3)C2=O)c1 (stereo not given)	>57	12%
COCCn1c(C2CCCCC2)nc2sc3ccccc3c(=O)c2c1=O	>57	0%
CCN(CC)c1ccc(C(=O)Nc2cccc(F)c2)cc1	>57	10µM*
Oc1ccc(C2NCc3ccccc3-n3cccc32)cc1Cl (stereo not given)	>57	?
NC(=O)c1cc(N2C(=O)C3CC=CCC3C2=O)ccc1N1CCCCC1 (stereo not given)	>57	-1%
CCCn1c(N2CCN(S(=O)(=O)Cc3ccccc3)CC2)nc2ccccc21	>57	-3%
COc1ccc(C(=O)[C@H](Br)[C@H](Br)C(=O)O)cc1	?	7%[8 µM]
Cc1cc(C(=O)Nc2ccc(C(=O)O)cc2)c(-c2ccccc2)o1	>57	-11%
O=C(c1cnccn1)N1CCC2(CCCN(c3cccc(-c4ccccc4)c3)C2)CC1	>57	?
CCOc1ccc(N(CC(=O)Nc2cccc(OC)c2)S(=O)(=O)c2c(C)noc2C)cc1	>57	?
CCN(C(=O)c1cc(Cl)ccc1OC)c1ccccc1	>57	-23%
O=C1CC(N2CCN(C/C=C/c3ccccc3)CC2)C(=O)N1Cc1cccs1 (stereo not given)	>57	-3%
COc1ccc(N2CCN(CCCNC(=O)CN3CCN(Cc4ccccc4C)C3=O)CC2)cc1	>57	-20%
CC1CCCCC1NC(=O)CSc1nnc(COc2ccccc2Cl)o1 (stereo not given)	>57	-10%
COc1ccccc1C(OC(=O)c1ccco1)C(=O)NC(C)(C)C (stereo not given)	>57	4%
CNC(=O)c1cc2c(cn1)[nH]c1ccccc12	>57&>57	?
COc1ccc(C(=O)CN2C(=O)C(C)(C)Oc3ccc(C(=O)N4CCCCCC4)cc32)cc1	>57	?
COc1ccccc1-c1nnc(SCC(=O)N2CC(C)CC(C)C2)o1 (stereo not given)	>57	-1%

The listing continues.
molecule	Prx2 Sm inh	LT uptake inh
CCOC(=O)c1cc(NC(=O)c2cnccn2)cc(C(=O)OCC)c1	>57	4%
O=C(c1ccccc1Oc1ccccc1)N1CCN(c2ccccc2)CC1	.	-5%
CCOC(=O)OCC1OC(c2ccc(C(C)=O)cc2)C=CC1Oc1ccc(-c2ccccc2)cc1 (stereo not given)	.	?
COc1cc(C(=O)NCc2cn3cccc(C)c3n2)cc(OC)c1OC	>57	6%
Cc1c(CCC(=O)O)c(=O)oc2cc3occ(-c4ccc(F)cc4)c3cc12	>57	-14%
COc1ccc(NC(=O)CSc2nc3c(c(=O)n2-c2ccccc2OC)SCC3)cc1	>57	-8%
O=S(=O)(Cc1ccccc1)Nc1ccc(S(=O)(=O)NCC2CCCO2)cc1 (stereo not given)	>57	-14%
O=C(CN1C(=O)NC2(CCSC2)C1=O)N1CCN(c2ccc(F)cc2)CC1 (stereo not given)	>57	12%
Nc1cc(OC(=O)c2cccs2)nn1S(=O)(=O)c1ccccc1	>57	-8%
CCN(C(=O)Cc1cccs1)c1nnc(-c2cc(OC)c(OC)c(OC)c2)s1	>57	-12%
Cc1ccn(C(=O)c2ccc(NC(=O)C3CCCCC3)cc2)n1	>57	17%
Cc1ccc(N(Cc2ccco2)C(=O)c2cccc(S(=O)(=O)N(C)C)c2)cc1	>57	.
CN(C)c1ncnc2ccc(-c3cccc(NS(C)(=O)=O)c3)cc12	>57	-17%
CCOC(=O)Cc1csc(NC(=O)c2c(O)c3ccccc3n(C)c2=O)n1	>57	-5%
c1cncc(Nc2nc(-c3cccnc3)cs2)c1	>57	?
O=S(=O)(c1ccc(NCC2CCCCC2)nc1)N1CCOCC1	>57	-8%
CCOC(=O)N/N=C1/C[C@@H](O)[C@@H](O)[C@@H]2[C@@H]3C(=O)N(C4CCCCC4)C(=O)[C@H]3CC[C@@H]12	.	-4%[8 µM]
Cc1cccc(-n2cnc3cc(C(=O)N4CCCCC4)ccc32)c1	>57	1%
CC1CCc2c(nc3ncnn3c2N2CCN(c3ccccc3)CC2)C1 (stereo not given)	>57	-1%
CCOC(=O)CCNC(=O)Nc1ccc2nc(C)n(Cc3cccc(Cl)c3)c(=O)c2c1	>57	-15%
CC(OC(=O)c1cc(=O)[nH]c2ccccc12)c1ccccc1 (stereo not given)	.	?

Exported with each value named: part of the list above.
> Cc1cccc(-n2cnc3cc(C(=O)N4CCCCC4)ccc32)c1
  Prx2 Sm inh = >57	LT uptake inh = 1%
> CCOC(=O)CCNC(=O)Nc1ccc2nc(C)n(Cc3cccc(Cl)c3)c(=O)c2c1
  Prx2 Sm inh = >57	LT uptake inh = -15%
> CCOC(=O)N/N=C1/C[C@@H](O)[C@@H](O)[C@@H]2[C@@H]3C(=O)N(C4CCCCC4)C(=O)[C@H]3CC[C@@H]12
  Prx2 Sm inh = .	LT uptake inh = -4%[8 µM]

Screens: PubChem BioAssay, National Center for Advancing Translational Sciences (NCATS)
